From PubChem
NPYLR7 ag: agonists of mosquito NPYLR7 receptor, primary screen, cell-based, Aedes aegypti, calcium fluorescence, mosquito biting behavior; Aedes aegypti neuropeptide Y-like receptor 7 (NPYLR7); HEK293T NPYLR7/Galpha15, GCaMP6s calcium fluorescence; activation, % at 10 µM; 270,000 tested, 0.15% active; in the data active = activation above about 40%;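 also: 0% = vehicle and 100% = reference agonist at the receptor; some compounds past the cut are filed as inactive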
NPYLR7 ag max-min: also measured in NPYLR7 ag; calls as there; activation, %; measured here: Max-Min RFU normalised activation; some inactives read as strong as hits;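 span of the calcium signal over five minutes; 0% = vehicle and 100% = native peptide agonist; compound fluorescence can raise it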
An asterisk follows results filed as active; & = joins results of further samples.

SMILES	NPYLR7 ag	NPYLR7 ag max-min
COc1ccccc1OCC1CN(C(=O)c2cccnc2Cl)CCO1 (centres undefined)	-6	-12
COc1cc(C(=O)C=Cc2cc(OC)c(O)c(OC)c2)ccc1OC(F)F	6	6
COc1ccccc1C1CN(Cc2coc3ccccc3c2=O)Cc2ccccc2O1 (centres undefined)	18	7
COc1ccc(-c2cccc(-c3cccc(NC(=O)c4ccc(C(F)(F)F)nc4C)c3)n2)cc1	16	15
CCc1cccc2sc(N(CCCn3ccnc3)C(=O)c3cccc(OC)c3OC)nc12	-10	-12
CCc1nc(CN(C)CC2COc3ccccc3O2)c(C)[nH]1 (centres undefined)	2	3
Cc1ccc(Cl)cc1C(=O)N1CCC2(CC1)c1ccccc1[C@@H](N)[C@@H]2O	-5	-10
CCOCCCN(CC(=O)N(Cc1ccc(F)cc1)Cc1ccco1)C(=O)Nc1ccc(C)c(Cl)c1	-4	-1
O=C1N=C2OC=C(C(=O)Nc3cccc(Cc4ccccc4)c3)N2CCN1	-2	-6
CC1CN(C(=O)C(C)N2CCc3ccccc32)CC(C)O1 (centres undefined)	8	6
CCOC(=O)c1nn(CCc2ccccc2)c2c1CN(C(=O)c1ccc3c(c1)OCCO3)CC2	-11	-6
Cn1cc(CNC(=O)Nc2cccc(C(F)F)c2)cn1	9	4
c1csc(CSc2nc3ccccc3s2)c1	15	15
O=C(Cc1ccccc1Br)NCCc1cscn1	7	5
CS(=O)(=O)NC1CCCN(CCS(=O)c2ccccc2)C1 (centres undefined)	9	5
Cc1ccc(-n2cccn2)c(CN2CCCC(CNC(=O)c3ccc(F)cc3)C2)c1 (centres undefined)	3&0	-3&-1
CCCc1nc(C)cc(NC2CC(=O)N(Cc3cccc(F)c3)C2)n1 (centres undefined)	13	9
COc1ccc(-c2noc(-c3ccc(N(C)C4CCOCC4)nc3)n2)cc1	2	-4
CCCCC(=O)Nc1cc(-c2onc3c2CCc2cc(OC)ccc2-3)ccc1C	-1	-11
COc1ccc(-n2cc(CNCCN3CCOC3=O)c(-c3ccccc3Cl)n2)cc1	1	-3
C=CCN(Cc1nccn1Cc1c(F)cccc1Cl)C(=O)C1CC1	4	12
CC(Oc1ccc(Br)cc1Cl)C(=O)N(C)C1(C#N)CCCCC1 (centres undefined)	3	2
CCNC1CCS(=O)(=O)C1 (centres undefined)	-3	-2
COCCCN(Cc1c(-c2ccccc2)noc1N1CCOCC1)C(C)=O	-3	-1
Cc1ccc(-c2nnc(SCCCC(=O)N3CCN(C(=O)c4cccc(C(F)(F)F)c4)C(C)C3)n2-c2ccc(C)cc2)cc1 (centres undefined)	11	12
c1ccc(-c2nnc3sc(-c4ccccn4)nn23)cc1	-2	-2
Cc1nc(C(=O)N2CCCCC2C(=O)Nc2cccc(-c3nnc(C)s3)c2)cs1 (centres undefined)	6	8
CC(C(=O)NC(C)(C)c1ccc(Br)cc1)S(C)(=O)=O (centres undefined)	1	0
COc1ccc(CCNC(=O)c2cccnc2N2CCN(C(=O)NCc3ccccc3F)CC2)cc1OC	3	-1
N#Cc1nnc2ccccc2c1N1CCC(NC2CC2)CC1	-3	-5
O=c1[nH]c(CC2CC2)nc2c1CCN(Cc1cc3n(n1)CCCNC3)C2	-2	-9
Cc1onc(-c2ccccc2)c1C(=O)OCC(=O)Nc1ccccc1	-7	-11
Clc1cnc(Oc2ccccc2NCc2nnc(C3CC3)o2)c(Cl)c1	-2	-4
Cc1nn(C2CCS(=O)(=O)C2)c2nc(-c3ccco3)cc(C(=O)N3CCCC3)c12 (centres undefined)	6	9
Cc1ccc2ncccc2c1CN1CCN(C)C(C(=O)O)C1 (centres undefined)	2	5
CCOC(=O)C1=C(C)N=c2s/c(=C/c3ccco3)c(=O)n2C1c1ccc(OC(C)=O)cc1 (centres undefined)	-3	-10
Cc1cc(C)cc(CC(=O)N2CCC2(C)C(=O)NS(C)(=O)=O)c1 (centres undefined)	2	1
COc1ccc(CN2CCN(Cn3ncn(-c4ccccc4F)c3=S)CC2)cc1F	2	-2
CCc1nc2ccc(C(=O)Nc3cc(-c4ccccc4)ccc3OC)cn2c1N(CC)CC(=O)N(C)C	6	22
COc1cccc(C(CN2CCN(C(=O)c3oc4ccccc4c3C)CC2)OCc2ccc(C#N)cc2)c1 (centres undefined)	4	3
CCCCCCCCCCCC(=O)N(CCC)Cc1nc(C(=O)NCCC)cs1	11	23
Cc1nc(N)c(C#N)c(CCCNC(=O)c2ccccc2)n1	9	8
COC1CN(Cc2ccc(C)cc2)C(=O)CN(C(=O)OCC(C)C)C1 (centres undefined)	0	11
CCCC(=O)OCC(=O)NC(=O)NC(C)(C)C	5	3
CN(Cc1nc(C2CC2)no1)Cc1nccn1C	8	7
CCS(=O)CCNCc1cccc(OCc2ccccn2)c1 (centres undefined)	2	0
Cc1ccccc1CSc1nnc(Cn2c(=O)sc3ccccc32)n1C	0	2
CN(Cc1cc2cc(F)ccc2[nH]1)Cc1nc(-c2ccc3c(c2)OCO3)no1	1	1
CSC(c1ccc(O)cc1)=[N+]1CCOCC1	-6	-9
COc1ccc(S(=O)(=O)N2CCN(c3ccccc3C)CC2)cc1C	6	2
CN(Cc1ncnn1C)C(=O)NCC(C)(C)c1ccccc1Cl	8	2
O=C(CC1COCCN1)N1CCN(CCCOc2ccc(F)cc2)CC1 (centres undefined)	18	6
CCC(O)CN(CCN1CCOCC1)Cc1ccc(C)s1 (centres undefined)	-2	10
Cn1c(=O)c2c(ncn2CC(=O)N2CCCC2=O)n(C)c1=O	4	8
COCCN1CCCC2(CCN(C(=O)c3ccc(F)c(Cl)c3)C2)C1=O (centres undefined)	6	5
CCc1nnsc1C(=O)NCc1cccc(S(=O)(=O)NC)c1	6	4
CCOC(=O)CNC(=O)N(CCC(C)C)CC(=O)Nc1cc(C(C)(C)C)nn1-c1ccc(OC)cc1	-13	-5
CS(=O)(=O)c1ccc(N)c([N+](=O)[O-])c1	34	28
O=C(NC(CO)c1cccnc1)c1cc(Cn2ccc3ccccc32)[nH]n1 (centres undefined)	-5	-8
COC(=O)c1ccccc1NC(=O)C1COc2ccccc2O1 (centres undefined)	-1	10
Remaining list, next part
SMILES	NPYLR7 ag	NPYLR7 ag max-min
COc1ccc(CCN2C(=O)C(C)SC2c2ccc(C#N)cc2)cc1OC (centres undefined)	10	7
Cc1nc(C(C)C)sc1C(=O)N1CCCC2(C1)C(=O)N(C)c1ccccc12 (centres undefined)	0	-1
CC(=O)Nc1ccc(CC(=O)Nc2sc3c(c2C)CCCC3)cc1	5	4
COc1ccc(N2CCCN(C(C)c3nnc(C)o3)CC2)cc1 (centres undefined)	-1	-1
CCN(CC)CCCn1c2c(c(SCC(=O)Nc3ccc(C(F)(F)F)cc3)nc1=O)CCC2	1	6
CCOC(=O)CNC(=O)N1CCCC(CNS(=O)(=O)Cc2ccccc2)C1 (centres undefined)	-1	-3
CN(C)c1nc(-c2cccnc2)nc2c1CCN(C(=O)[C@@H](N)c1ccccc1)C2	0	-6
CC1CC(Sc2nnc(C(C)C)n2C2CC2)C(=O)O1 (centres undefined)	-1	0
COc1ccc(-c2ccc3c(c2)COC2(CCN(C(=O)Cc4ccccc4)CC2)O3)cc1OC	-7	-16
O=C1c2ccccc2NC(c2cccc(O)c2)N1c1ccc2c(c1)OCO2 (centres undefined)	1	-5
CC(=O)Nc1ccccc1CNC1CCS(=O)(=O)C1 (centres undefined)	-2	0
Cc1ccc(Br)c(NS(=O)(=O)c2cc(N)ccc2Cl)c1	4	1
CC(C)NC(=O)C1CCN(C2CCN(C(=O)c3scc4c3CCCC4)CC2)CC1	3&-3	2&-6
CC1=NN(c2ccc(S(N)(=O)=O)cc2)C(=O)/C1=C\c1cccs1	-9	-13
CCOc1ccc(N=Nc2c(N)[nH]n(-c3ccccc3)c2=O)cc1	-3	-11
CCOC(=O)C1CCN(C(=O)c2csc(CSc3nnc(-c4cccnc4)n3-c3ccc(C)cc3)n2)CC1	19	16
COc1ccc2c(CN(C)CCOc3cc(C)cc(C)c3)cc(=O)oc2c1	10	15
COc1ccc2c(CC(=O)N(CCC(N)=O)c3ccc(F)cc3)coc2c1	5	8
CC(C)(C)NC=CC(=O)C(F)(F)F	-4	-11
CCc1nc(CC(=O)NC(C)(C)c2ccc3c(c2)OCCO3)cs1	-3	-6

Arranged by length of the SMILES (high to low): part of the list above.
SMILES	NPYLR7 ag	NPYLR7 ag max-min
CCOC(=O)C1CCN(C(=O)c2csc(CSc3nnc(-c4cccnc4)n3-c3ccc(C)cc3)n2)CC1	19	16
CCOC(=O)CNC(=O)N(CCC(C)C)CC(=O)Nc1cc(C(C)(C)C)nn1-c1ccc(OC)cc1	-13	-5
COc1ccc(-c2ccc3c(c2)COC2(CCN(C(=O)Cc4ccccc4)CC2)O3)cc1OC	-7	-16
CCN(CC)CCCn1c2c(c(SCC(=O)Nc3ccc(C(F)(F)F)cc3)nc1=O)CCC2	1	6
CN(C)c1nc(-c2cccnc2)nc2c1CCN(C(=O)[C@@H](N)c1ccccc1)C2	0	-6
Cc1nc(C(C)C)sc1C(=O)N1CCCC2(C1)C(=O)N(C)c1ccccc12 (centres undefined)	0	-1
CC1=NN(c2ccc(S(N)(=O)=O)cc2)C(=O)/C1=C\c1cccs1	-9	-13
CCOC(=O)CNC(=O)N1CCCC(CNS(=O)(=O)Cc2ccccc2)C1 (centres undefined)	-1	-3
COCCN1CCCC2(CCN(C(=O)c3ccc(F)c(Cl)c3)C2)C1=O (centres undefined)	6	5
COc1ccc(CCN2C(=O)C(C)SC2c2ccc(C#N)cc2)cc1OC (centres undefined)	10	7
CCOc1ccc(N=Nc2c(N)[nH]n(-c3ccccc3)c2=O)cc1	-3	-11
CCc1nc(CC(=O)NC(C)(C)c2ccc3c(c2)OCCO3)cs1	-3	-6
CC(=O)Nc1ccc(CC(=O)Nc2sc3c(c2C)CCCC3)cc1	5	4
O=C(CC1COCCN1)N1CCN(CCCOc2ccc(F)cc2)CC1 (centres undefined)	18	6
Cc1ccc(Br)c(NS(=O)(=O)c2cc(N)ccc2Cl)c1	4	1
COc1ccc(N2CCCN(C(C)c3nnc(C)o3)CC2)cc1 (centres undefined)	-1	-1
CS(=O)(=O)c1ccc(N)c([N+](=O)[O-])c1	34	28
CC1CC(Sc2nnc(C(C)C)n2C2CC2)C(=O)O1 (centres undefined)	-1	0
CC(=O)Nc1ccccc1CNC1CCS(=O)(=O)C1 (centres undefined)	-2	0
CCC(O)CN(CCN1CCOCC1)Cc1ccc(C)s1 (centres undefined)	-2	10
CC(C)(C)NC=CC(=O)C(F)(F)F	-4	-11

Continuation.
SMILES	NPYLR7 ag	NPYLR7 ag max-min
COc1cc(C2CN(C(=O)c3ccccc3F)CC2C(=O)N2CCCCC2)cc(OC)c1OC (centres undefined)	9	7
CC1=C(C(=O)OC(C)C)C23C(=O)c4ccccc4C2(OC(=N)C3C#N)O1 (centres undefined)	2	1
CC(=O)N(C)Cc1cccc(NC(=O)Nc2cccc(F)c2)c1	9	2
CCC(CC)C(=O)N(C)c1c(C)nc2c(OCc3cc(Cl)cc(Cl)c3)cccn12	-5	-9
CC(C)CCN1C(=O)CC(N2CC(C)OC(c3ccccc3)C2)C1=O (centres undefined)	3	2
CC(C)N(CC(=O)N1CCc2sccc2C1c1ccc(Cl)cc1Cl)S(=O)(=O)c1cc(Cl)ccc1Cl (centres undefined)	-2	1
CCC(C(=O)N(CC(=O)N1CCc2sccc2C1c1ccc(Cl)cc1)CC(C)C)c1ccccc1 (centres undefined)	-4	7
CNC(c1ccccc1)c1ccc(F)cc1Cl (centres undefined)	5	0
CCOC(=O)N1CCN(Cc2ccc3c(c2)CN(C(=O)C2Cc4ccccc4O2)CCO3)CC1 (centres undefined)	-1	-4
C#CCNC(=O)c1cc(N2CCN(c3ccc(OC)cc3)CC2)nc2ccccc12	2	2
N#CCCn1c(=S)n(CCC#N)c2ccccc21	2	0
Cc1ccccc1NC(=O)CSc1ccc2nnc(-c3cccnc3)n2n1	1	1
COc1ccc(-c2nc(CN(C)Cc3nc4ccccc4s3)c(C)o2)c(F)c1	17	9
CC1=NC2=C(C(=O)CC(C)(C)C2)C(c2cccc(O)c2)C1C#N (centres undefined)	13	9
O=C(CSc1nnc(-c2ccco2)n1-c1ccc(F)cc1)N1CCOCC1	30	34

An excerpt (hit frequency here may not be typical).
